miR-21 FLuc = raises the signal of a miR-21 reporter. HeLa miR-21 FLuc reporter, luciferase, 48 h. 340,000 tested, under 10 active. AID 2288. Potency, µM (series often up to 38.3 µM), for inactives: at the highest dose reporter change, positive = more light; active = well fitted rising curve with a large enough effect; inconclusive = small, poorly fitted or top-dose-only effect; inactive = no such curve, though single readings can be large or run the other way;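 note: % of control where 0% means no effect; miR-21 action dims this reporter so a rising signal means less miR-21 action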
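HeLa miR-21-FLuc reporter line, endogenous miR-21; 2000 cells/well in DMEM/10% FBS; compound titration up to ~40uM final, 48 h, 37 degree Celsius; luciferase detection reagent, 15 min lysis, CCD luminescence.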
Rango-impB inh = inhibitors of Rango-importin beta complex formation; 340,000 tested, 0.031% active; Rango CFP/YFP FRET sensor + importin beta, 45 min; Q14974; AID 540263; Potency, µM (titrated, usually from 92.2 µM), without a hit: top-dose inhibition of complex formation; active = rising FRET ratio curve, often small or poorly fitted; inconclusive = mostly compound fluorescence or quenching in the first reads; inactive = flat curves in all reads;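 note: potency is the fitted concentration of half-maximal effect; 0% = DMSO wells and 100% = buffer wells lacking importin beta; nearly all actives have a fitted effect of over 15% in size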
Target sequence (Q14974 whole entry, looked up): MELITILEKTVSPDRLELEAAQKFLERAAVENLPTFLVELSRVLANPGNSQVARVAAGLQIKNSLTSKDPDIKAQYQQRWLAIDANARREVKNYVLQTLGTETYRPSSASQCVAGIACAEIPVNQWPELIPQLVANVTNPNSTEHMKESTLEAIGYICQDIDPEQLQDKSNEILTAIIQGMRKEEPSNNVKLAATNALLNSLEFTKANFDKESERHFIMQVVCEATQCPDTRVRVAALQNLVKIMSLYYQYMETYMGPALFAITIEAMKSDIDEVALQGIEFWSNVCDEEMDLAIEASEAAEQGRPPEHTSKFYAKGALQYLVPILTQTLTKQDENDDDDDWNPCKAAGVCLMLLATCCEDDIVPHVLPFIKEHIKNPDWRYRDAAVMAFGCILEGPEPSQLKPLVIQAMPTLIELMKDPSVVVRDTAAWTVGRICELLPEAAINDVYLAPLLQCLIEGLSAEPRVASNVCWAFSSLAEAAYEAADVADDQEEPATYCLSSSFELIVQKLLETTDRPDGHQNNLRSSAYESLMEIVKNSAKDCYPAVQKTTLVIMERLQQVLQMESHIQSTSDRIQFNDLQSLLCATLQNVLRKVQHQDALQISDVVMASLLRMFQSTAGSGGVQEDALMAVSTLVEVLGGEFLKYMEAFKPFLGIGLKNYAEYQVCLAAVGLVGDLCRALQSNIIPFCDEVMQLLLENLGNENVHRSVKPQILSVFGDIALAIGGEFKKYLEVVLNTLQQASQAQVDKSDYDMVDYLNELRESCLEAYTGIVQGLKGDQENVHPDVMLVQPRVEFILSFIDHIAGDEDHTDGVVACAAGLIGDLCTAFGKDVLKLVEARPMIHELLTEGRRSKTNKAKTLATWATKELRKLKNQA
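FRET biosensor Rango (snurportin 1 IBB between N-terminal EYFP and C-terminal Cerulean), 50 nM in PBS/1 mM DTT/0.02% Tween-20/0.1% BSA, preincubated 5 min RT with compound; 0.125 microM importin beta added, 45 min RT, CFP/YFP FRET ratio read.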
GLA inh pH 4.5 = alpha-galactosidase A (human) inhibition, pH 4.5; P06280; purified enzyme, 4-MU-alpha-Gal fluorescence, pH 4.5; activity change, negative = inhibition, % at 105 µM; 230,000 tested, under 10 active; inconclusive = small, poorly fitted or top-dose-only inhibition, or a rising curve; inactive = flat fitted curve, though single readings scatter; no compound was filed as active;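 note: 0% = full activity with enzyme and -100% = basal without enzyme; dose as in the result columns while the protocol names 77 µM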
Rango dissoc inh = inhibition of RanGTP-driven Rango-importin beta dissociation | O95149+P62826 | Biochemical FRET Rango-importin beta, RanGTP-induced dissociation | Potency, µM (series often up to 46.1 µM), inactives show top-dose activity change, negative = inhibition | 340,000 tested, 0.071% active | AID 540253; active means falling FRET ratio curve, often poorly fitted, with flat reads before Ran was added; inconclusive means other falling curves, or compound fluorescence or quenching; inactive means flat or rising ratio curve;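 note: potency is the fitted concentration of half-maximal effect; % of control where 0% means no effect; nearly all actives have a fitted effect of over 45% in size; -100% = wells without RanGTP and RCC1; the record marks most hits as doubtful in a second field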
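Recombinant Rango FRET biosensor (EYFP–snurportin 1 IBB–cerulean CFP10) at 0.1 uM premixed with 0.25 uM importin beta in PBS, 1 mM DTT, 0.02% Tween-20, 0.1% BSA. Compound added 5 min; RanGTP-RCC1 (0.6 uM Ran, 2 mM GTP, 0.2 uM RCC1) then triggers release, read at 45 min.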
* marks the source's active call; other numbers are inactive results; ? = inconclusive; / = not tested or not shown.

SMILES	miR-21 FLuc	Rango-impB inh	GLA inh pH 4.5	Rango dissoc inh
O=C(NC1CCCCC1)c1csnn1	/	-0.6%	/	1%
COc1cccc(-c2nnn(C/C(N)=N/O)n2)c1	-27%	0.4%	-4	12%
Cc1ccc(N2CCN(/N=C/c3sccc3C)CC2)cc1	-22%	2.5%	5	0%
C=CC[C@@H](Cc1ccc(F)cc1)C(=O)OC[C@@H]1CCCN1C(=O)[C@@H](CC=C)CC(=O)N(CCO)Cc1ccccc1	/	-0.8%	/	-13%
Clc1ccc(Cn2ccc3ccccc32)cn1	-7%	12%	/	-3%
CCN(CCCNS(=O)(=O)c1cc(-c2cc(C)no2)ccc1C)Cc1ccccc1	-3%	0.7%	/	0%
COc1ccccc1NC(=O)NNC(=O)CN1C(=O)COc2ccccc21	-1%	2.1%	/	-14%
CCOc1ccccc1C(=O)NC(C)c1ccc(-n2ccnc2)cc1 (stereo not drawn)	-15%	1.5%	/	5%
COc1ccccc1C(c1nnnn1C(C)(C)C)N1CCN(C(=O)c2ccco2)CC1 (stereo not drawn)	0%	6.2%	-5	9%
CN1C(C)(C)CC(NC(=O)c2ccco2)CC1(C)C	-7%	0.0%	/	-9%
CN(C)CC(CCC(CN(C)C)C(O)(c1ccccc1)c1ccccc1)C(O)(c1ccccc1)c1ccccc1 (stereo not drawn)	?	1.7%	/	2%
CCC(CC)C(=O)Nc1cccc(C(=O)NCc2ccco2)c1	-6%	?	4	-4%
O=C(CN1CCN(c2ccccc2)CC1)N1CCN(c2ccccc2)CC1	-1%	0.5%	10	7%
CCCC(=O)N1CCC(Cc2ccccc2)CC1	-4%	3.5%	/	18%
O=C(/C=C/c1ccco1)NC(=S)Nc1ccc(Cl)cn1	-39%	-0.9%	1	5%
CC(C)CC(NC(=O)C(CC(C)C)NC(=O)OC(C)(C)C)C(N)=O (stereo not drawn)	0%	3.2%	-2	2%
CC1C(=O)N2CCCc3cc(NC(=O)C4CCCCC4)cc1c32 (stereo not drawn)	/	-1.8%	/	28%
CC(=O)N1CCN(CC(=O)Nc2c(Cl)cc(Cl)cc2Cl)CC1	-1%	-5.4%	-8	-6%
COc1cccc(OC)c1C(=O)OCC(=O)Nc1ccc(OC(F)(F)F)cc1	10%	-1.6%	-22	14%
CCc1cccc(CC)c1NC(=O)CO/N=C(\C)c1cccs1	-7%	8.6%	-10	-2%
CSc1ccccc1NC(=O)c1onc(C)c1Cl	-18%	-0.3%	-3	-10%
COc1ccc(Br)cc1C(=O)NCc1cccnc1	0%	-1.5%	7	-1%
C[C@H](CO)N1C[C@H](C)[C@@H](CN(C)C)Oc2c(NS(=O)(=O)c3cn(C)cn3)cccc2C1=O	/	-2.5%	/	-3%
CCC(C)c1ccccc1N1CC(C(=O)N2CCN(S(=O)(=O)c3ccccc3Br)CC2)CC1=O (stereo not drawn)	/	-0.7%	/	-13%
COc1cccc(NC(=O)CN2CCSc3ccccc32)c1	-4%	-3.7%	2	-18%
CCC(=O)c1ccc(OCC(=O)OCC(=O)Nc2ccc3c(c2)OCCO3)cc1	/	2.7%	/	10%
Cc1ccc(CCC(=O)Nc2ccc(Br)cc2)o1	-1%	-0.2%	/	-5%
O=C(COc1ccc([N+](=O)[O-])cc1)Nc1ccc2c(c1)nc1n2CCOC1	-3%	4.1%	/	0%
O=C(NC(=S)Nc1ccccc1Cl)c1csnn1	-25%	0.3%	-7	21%
Cc1ccc(CNC(=S)NC2CCC(C(C)(C)C)CC2)cc1 (stereo not drawn)	2%	7.0%	/	-2%
O=C(CCc1ccc(S(=O)(=O)N2CCOCC2)cc1)NCCc1ccccn1	-7%	-1.5%	4	18%
CCC(CC)C(=O)NCc1cccnc1	-4%	-1.1%	-5	-14%
CCOc1ccc(-n2c(SCC(=O)Nc3ccccc3CC)nc3n[nH]c(C)c3c2=N)cc1	7%	/	-1	/
COc1ccc2[nH]c3c(c2c1)CCN1C(=O)C(CC(=O)NCCc2ccccn2)C[C@H](C(=O)N2CCOCC2)[C@@]31CCC1CCCC1 (stereo partly drawn)	/	5.5%	/	7%
COc1ccc(NC(=O)CCC(=O)NCCO)cc1	-21%	-1.3%	6	-12%
CN(C)CCCN(C(=O)c1ccc(S(=O)(=O)N2CCCC2)cc1)c1nc2ccc(Br)cc2s1	-5%	-1.5%	/	1%
CCC(=O)Nc1cccc(C2=NOC3(C2)C[C@H](C(N)=O)N(C(=O)c2ccc(Cl)cc2)C3)c1 (stereo partly drawn)	1%	0.8%	0	12%
O=C(Nc1cc2ccccc2oc1=O)c1ccccc1	-19%	-2.0%	-6	-8%
CCOC(=O)C(C)Oc1cccc2c(=O)n(CC(=O)Nc3ccc(OCC)cc3)ccc12 (stereo not drawn)	4%	0.1%	10	0%
O=C(CN1CCC(C(=O)c2cccc(Cl)c2)CC1)Nc1ccc(C(=O)O)cc1	-7%	0.2%	5	-2%
CCOc1ccc(NC(=O)c2ccc(CSc3nnc(C)s3)cc2)cc1	-33%	1.0%	7	-1%
O=C(CSc1nc(-c2ccccc2)cc(C(F)(F)F)n1)N1CCOCC1	-5%	6.7%	-10	-12%
CCC1CCCCN1CCn1c(=S)[nH]c2cc(OC)c(OC)cc2c1=O (stereo not drawn)	-4%	11%	-11	0%
Cc1ccc2c(c1)N(CC(=O)NC1CCC(C)CC1)C(=O)CO2 (stereo not drawn)	-29%	?	9	-9%
CC(C)C[C@@H](CSc1ccccc1)N1CCN(CCc2ccccc2)CCC1=O	-22%	-0.9%	/	10%
O=C(Nc1nc(=S)ss1)c1ccc(Cl)cc1Cl	-5%	-0.7%	-2	-7%
O=C(CCC1CCCC1)N=C1SC2CS(=O)(=O)CC2N1c1ccccc1F (stereo not drawn)	0%	4.1%	/	1%
COc1ccc(NC(=O)CSCC(=O)N(C)CC(=O)Nc2cccc3ccccc23)cc1	/	-0.1%	/	-12%
CC(=O)Nc1c(O)nc(SCC(=O)Nc2nnc(CC(C)C)s2)[nH]c1=O	-17%	4.4%	5	-11%
O=C(Nc1ccc(Cl)cn1)C1CCN(c2ncnc3c2nc2n3CCCCC2)CC1	16%	0.2%	/	11%

Compound profiles, as listed above. Screens in order: miR-21 FLuc	Rango-impB inh	GLA inh pH 4.5	Rango dissoc inh
CCOc1ccc(NC(=O)c2ccc(CSc3nnc(C)s3)cc2)cc1 is listed with -33%	1.0%	7	-1%
COc1ccc(NC(=O)CSCC(=O)N(C)CC(=O)Nc2cccc3ccccc23)cc1 is listed with /	-0.1%	/	-12%
O=C(Nc1nc(=S)ss1)c1ccc(Cl)cc1Cl is listed with -5%	-0.7%	-2	-7%
CC(=O)Nc1c(O)nc(SCC(=O)Nc2nnc(CC(C)C)s2)[nH]c1=O is listed with -17%	4.4%	5	-11%
CC(C)C[C@@H](CSc1ccccc1)N1CCN(CCc2ccccc2)CCC1=O is listed with -22%	-0.9%	/	10%

(further entries)
SMILES	miR-21 FLuc	Rango-impB inh	GLA inh pH 4.5	Rango dissoc inh
C/C(=N\NS(=O)(=O)c1ccc([N+](=O)[O-])cc1)c1c[nH]c2ccccc12	-5%	0.2%	/	0%
CN(C)C(=S)NC(=NCc1ccc([N+](=O)[O-])cc1)c1ccccc1	3%	-1.0%	/	11%
CC1=CC(c2ccccc2)=NS(=O)(=O)N1	/	0.0%	/	0%
Cc1ccc(CC(=O)NCCS(=O)c2ccc(C)cc2)cc1 (stereo not drawn)	1%	-0.5%	-2	-12%
CCOC(=O)C1CCN(C(=O)C(=O)Nc2ccc3nc4n(c(=O)c3c2)CCCCC4)CC1	0%	5.3%	/	13%
Cc1ccc(/C=C/C(=O)N(Cc2cccs2)C2CCS(=O)(=O)C2)cc1 (stereo not drawn)	-7%	3.2%	-5	-1%
Cc1ccc(NC(=O)c2cccc(OCc3c(C)noc3C)c2)cc1	-23%	?	-7	7%
Cc1ccccc1-c1nc(CS(=O)CC(=O)NCCCN(C)c2ccccc2)c(C)o1 (stereo not drawn)	-1%	-1.8%	-1	29%
O=[N+]([O-])c1cc(/C=N/N2CCOCC2)cs1	-5%	-1.4%	/	5%
COc1ccc(NC(=O)c2ccc(NC(=O)c3ccncc3)cc2)cc1	-1%	1.0%	/	-4%
Cc1ncc(N=Nc2ccccc2)c(-c2ccccc2)n1	-8%	-0.2%	3	3%
O=C1CCC([N+](=O)[O-])C(c2cc(Br)ccc2F)N1 (stereo not drawn)	3%	2.0%	/	-1%
Cc1ccc(C(O)c2ccc(-n3ccnc3)cc2)cc1 (stereo not drawn)	-1%	-0.8%	/	-6%
CCc1ccc(/C=C2\Oc3cc(OC(=O)N4CCOCC4)ccc3C2=O)cc1	-5%	-2.9%	-5	-25%
COc1cccc(CN2C(=O)C3(C(C#N)=C(N)OC4=C3C(=O)CCC4)c3ccccc32)c1 (stereo not drawn)	-6%	-4.2%	-2	2%
CCOC(=O)C1CCN(Cc2cccc(OC)c2)CC1	-1%	-8.0%	1	-5%
O=c1c2c([nH]n1-c1ccccc1)CCSC2	8%	0.3%	/	-18%
O=C(Nc1cccc(Cl)c1N1CCOCC1)c1ccc(Br)o1	-5%	3.3%	/	-1%
O=C(NCCCN1CCOCC1)C1CCN(S(=O)(=O)c2c(Cl)cccc2Cl)CC1	-5%	-0.3%	/	0%
O=C(c1ccco1)[C@@H]1[C@@H]2C(=O)N(c3ccc(F)cc3)C(=O)[C@@H]2[C@H]2C=Cc3ccccc3N21	-13%	?	-9	?
CC(Sc1nnc(COc2ccc([N+](=O)[O-])cc2)n1C)C(=O)O (stereo not drawn)	-2%	0.0%	-28	9%
N#Cc1ccc(COC(=O)CCc2c[nH]c3ccccc23)cc1	0%	1.1%	/	10%
CN1C(=O)NC(c2ccc(O)cc2)C(C(=O)c2cccs2)C1(O)C(F)(F)F (stereo not drawn)	-23%	0.7%	-3	-7%
CCOc1ccccc1NC(=O)c1ccc2nc[nH]c2c1	-15%	-1.1%	/	-2%
Cc1ncc(C[n+]2csc(CCOC(=O)C34CC5CC(CC(C5)C3)C4)c2C)c(N)n1	-6%	-3.4%	-1	-5%
COc1cc2nc(CN3CCN(S(=O)(=O)c4ccc(Cl)cc4)CC3)[nH]c(=O)c2cc1OC	23%	-0.7%	5	-1%
O=C(COC(=O)C(CO)NS(=O)(=O)c1ccc(Br)cc1)Nc1ccc2c(c1)OCCO2 (stereo not drawn)	/	-2.6%	/	8%
C[C@H](CO)N1C[C@H](C)[C@@H](CN(C)Cc2ccc(Oc3ccccc3)cc2)Oc2c(NC(=O)c3ccncc3)cccc2C1=O	/	1.0%	/	-22%
O=C(NCC1(O)CCCCC1)C1CCC(=O)N(Cc2ccccc2F)C1 (stereo not drawn)	3%	1.0%	/	-10%
CN(CC(=O)Nc1ccc(Cl)c(C(F)(F)F)c1)C(=O)C1CCCO1 (stereo not drawn)	/	-3.3%	/	-8%
Cc1cc(C)c2[nH]c(=O)c(CN(Cc3cccnc3)C(=S)NCCCN(C)C)cc2c1	0%	1.0%	3	7%
CC1CCC(NS(=O)(=O)c2ccc3c(c2)n(C)c(=O)c(=O)n3C)CC1 (stereo not drawn)	-6%	-2.6%	4	0%
Cc1nc2ccccc2cc1C(=O)Nc1ccccc1Cl	-11%	-4.0%	-4	2%
Cc1cc(C)nc(N/N=C/c2ccccc2Cl)n1	-43%	0.2%	2	16%
CCN1CCN(C(=O)c2cnn3c(C(F)F)cc(-c4ccc(C)cc4)nc23)CC1	-16%	-2.6%	-14	1%
Cc1ccc(NC(=O)NCc2ccc3c(c2)OCO3)cc1C	-32%	-0.3%	4	17%
COc1cc2c(cc1OC)CN(C(=O)CN1C(=O)NC3(CCCCC3C)C1=O)CC2 (stereo not drawn)	/	-3.7%	/	-12%
C=CCN1C(=O)/C(=C2/Sc3ccccc3N2CCCS(=O)(=O)O)SC1=S	-1%	?	-2	?
CC(=O)N(CCc1cccc(C)c1)Cc1cc2ccc(C)cc2[nH]c1=O	-12%	-0.3%	/	1%

High-throughput results from PubChem.

These rows are one share of the data; the hit share may differ from the screen's.
